HSV replic up: HSV replication enhancement | HSV replication augmentation in cells, fold increase | maximum fold increase | hit rate 0.005% among 220,000 | AID 1956;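 active = peak rise of 1.5-fold or more in the series; tested in PC3 cells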;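 also: first round at 10 µM; read as green reporter fluorescence; hits show the peak of a series up to 25 µM; 1 = signal of infected wells without compound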
GALR2 ag: GALR2 (human) receptor agonism | GALR2-expressing cells, agonist activation read-out | activation, %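 (tested at 5 µM)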 | O43603 | hit rate 0.48% among 140,000 | AID 803;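 active = above mean plus 3 SD of all compounds, about 5% in these data, not always enough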;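 also: 0% = vehicle buffer wells and 100% = reference agonist at full effect; tested in CHO reporter cells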
PKD1 kinase inh: inhibitors of human PKD1 kinase; Q15139; PKD1 kinase fluorescence polarization assay; inhibition, %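 (about 10 µM by stock and volumes)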; hit rate 0.056% among 200,000; AID 797;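 active = inhibition of 50% or more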;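 also: controls were vehicle for no effect and a reference inhibitor for full effect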
Target sequence (Q15139 whole entry, looked up): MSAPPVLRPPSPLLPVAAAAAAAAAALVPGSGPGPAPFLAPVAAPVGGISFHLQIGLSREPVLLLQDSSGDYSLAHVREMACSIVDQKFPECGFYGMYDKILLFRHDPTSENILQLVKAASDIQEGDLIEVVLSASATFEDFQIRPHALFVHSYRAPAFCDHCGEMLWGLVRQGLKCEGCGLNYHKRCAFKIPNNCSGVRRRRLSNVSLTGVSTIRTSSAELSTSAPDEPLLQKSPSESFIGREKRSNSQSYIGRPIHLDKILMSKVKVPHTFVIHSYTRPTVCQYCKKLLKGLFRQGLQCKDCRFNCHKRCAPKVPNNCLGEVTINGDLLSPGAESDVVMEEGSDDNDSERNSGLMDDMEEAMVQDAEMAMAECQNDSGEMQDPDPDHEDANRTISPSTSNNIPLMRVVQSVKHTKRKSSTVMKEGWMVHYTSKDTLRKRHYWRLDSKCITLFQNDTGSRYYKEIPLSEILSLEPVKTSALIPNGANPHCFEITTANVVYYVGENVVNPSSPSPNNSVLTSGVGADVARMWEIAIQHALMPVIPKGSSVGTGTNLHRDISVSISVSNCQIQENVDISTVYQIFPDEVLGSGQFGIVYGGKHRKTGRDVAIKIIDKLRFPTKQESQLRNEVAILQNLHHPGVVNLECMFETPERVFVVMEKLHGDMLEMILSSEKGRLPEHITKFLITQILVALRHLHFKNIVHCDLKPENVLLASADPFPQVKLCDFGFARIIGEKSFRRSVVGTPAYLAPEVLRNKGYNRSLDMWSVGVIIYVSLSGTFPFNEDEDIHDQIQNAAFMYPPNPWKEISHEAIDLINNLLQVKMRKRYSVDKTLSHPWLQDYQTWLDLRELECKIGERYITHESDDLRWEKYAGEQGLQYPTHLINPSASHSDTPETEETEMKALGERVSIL
RGS16-Gao: RGS16-Galphao interaction regulator (human) | bead-based flow cytometry RGS16-Galphao binding, fluorescence; actives lie on both sides | binding response (% of control), % at 10 µM | hit rate 0.38% among 220,000;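 active = below 25% or above 175%, edge rows of some plates excepted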;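 also: Galphao activated by GDP with aluminum fluoride before binding; 100% = wells without compound and 0% = beads without RGS; some results beyond the cut were filed as inactive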
INS promoter inh: TRM-6 insulin promoter activity inhibition; TRM-6 cells (human fetal islet line), insulin promoter-eGFP reporter, imaging; reporter expression induced with tamoxifen; inhibition, % at 2 µM; hit rate 0.9% among 130,000;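 active = inhibition above the mean plus 3 SD, with well images judged a real hit on visual review, cut at about 60% in these data, passing the limit was not always enough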
INS promoter inh cell count: recorded beside INS promoter inh, whose call it bears; normalized cell count, %; measured here: cell count, toxicity; reference of the scale not given here;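 cells exposed to compound for 48 h; stained nuclei by imaging scaled within each plate; lower means fewer cells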
HSV replic up primary fold: also measured in HSV replic up; calls as there; fold increase; compound at 10 µM; measured here: primary screen fold increase 10 uM; tested in PC3 cells;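 GFP signal in the first replicate; 1 = infected wells without compound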
* = called active by the depositor; i = inactive; . = no result given.

Results follow in this order: HSV replic up, HSV replic up primary fold, GALR2 ag, PKD1 kinase inh, RGS16-Gao, INS promoter inh, INS promoter inh cell count
CCC(C)[C@H](N)c1cn([C@@H](Cc2cc3ccccc3[nH]2)C(=O)N2CCNCC2)nn1 (some centres undefined)
    i, 0.87, ., -7, 102, ., .
Cc1ccc(-c2nnc(Cc3ccc([N+](=O)[O-])cc3)o2)cc1
    i, 0.85, ., -1, 96, 38, 89
Cc1cc(C)c(S(=O)(=O)N(C)CC(=O)NC2CCCC2)c(C)c1
    i, 0.78, -2.3, 0, 102, 7, 144
CCOC(=O)c1cccc(NC(=O)CSc2nnc(COc3ccccc3C)o2)c1
    i, 1.2, -0.7, 16, 102, ., .
Cn1c(=O)oc2cc(S(=O)(=O)N3CCN(c4ccccn4)CC3)ccc21
    i, 0.91, 0.4, -13, 110, 17, 47
COc1ccc(CN(C)CC(=O)Nc2ccc(Cl)cc2C(F)(F)F)c(OC)c1
    i, 1.1, -1.3, 1, 88, 13, 99
CC(=O)Nc1ccc(S(=O)(=O)Oc2cccc(N3C(=O)C4CC=CCC4C3=O)c2)cc1 (centres undefined)
    i, 0.72, -1.1, -4, 97, 18, 62
O=c1[nH]c(CN2CCN(c3ccc(F)cc3)CC2)nc2ccccc12
    i, 1, 0.2, -4, 98, -29, 271
Cc1nc2nc3c(c(=O)n2[nH]1)CCCC3
    i, 0.95, -3.2, 5, 93, ., .
COc1ccc(N(CC(=O)N2CCCCC2)S(=O)(=O)c2c(C)nn(C)c2C)cc1
    i, 0.98, -1.7, -21, 108, ., .

The results go on.
Results follow in this order: HSV replic up, HSV replic up primary fold, GALR2 ag, PKD1 kinase inh, RGS16-Gao, INS promoter inh, INS promoter inh cell count
CC1CCC2(CC1)NC(CO)(CO)CO2 (centres undefined)
    i, 0.96, -3.4, 7, 70, -40, 159
CC(C)C1CC(c2csc(N)n2)CCO1 (centres undefined)
    i, 0.86, -2.2, 1, 90, ., .
C=C(C)C1Cc2c(C)nn(-c3cccc4ccccc34)c2C1 (centres undefined)
    i, 1.1, -2.4, 0, 100, 26, 120
O=C(c1ccco1)N1CCN(Cc2ccccc2C(F)(F)F)CC1
    ., ., -0.5, -5, ., -38, 214
Cc1cccn2c(=O)c(/C=C(\C#N)S(=O)(=O)c3ccccc3)c(N3CCCCC3)nc12
    i, 1, ., ., 111, ., .
CC1CCN(c2nc3c(c(=O)[nH]c(=O)n3C)n2CC(C)CSc2nnnn2-c2ccccc2)CC1 (centres undefined)
    i, 0.89, 0.4, 3, 109, 25, 118
COC/C=C/C1=CC2=CC(=O)C(C)(OC(=O)c3cnc4ccccc4n3)C(=O)C2=CN1Cc1ccccc1 (centres undefined)
    i, 1, ., ., 86, ., .
Cn1c(SCC(=O)NCCc2ccccc2)nnc1-c1ccco1
    i, 1, -0.1, -1, 89, 17, 78
COc1cc(Cn2c(C(=O)O)cc3sccc32)cc(OC)c1OC
    ., ., -1.6, 6, 100, ., .
CCCCC[C@H](O)/C=C/[C@@H]1[C@@H](C/C=C\CCCC(=O)OC)[C@@H](O)C[C@H]1O
    i, 0.75, -0.8, -4, 32, 0, 112

Record cards, from the list above. Screens in order: HSV replic up | HSV replic up primary fold | GALR2 ag | PKD1 kinase inh | RGS16-Gao | INS promoter inh | INS promoter inh cell count
`CC1CCC2(CC1)NC(CO)(CO)CO2` (centres undefined) reads i | 0.96 | -3.4 | 7 | 70 | -40 | 159
`CCCCC[C@H](O)/C=C/[C@@H]1[C@@H](C/C=C\CCCC(=O)OC)[C@@H](O)C[C@H]1O` reads i | 0.75 | -0.8 | -4 | 32 | 0 | 112
`C=C(C)C1Cc2c(C)nn(-c3cccc4ccccc34)c2C1` (centres undefined) reads i | 1.1 | -2.4 | 0 | 100 | 26 | 120
`O=C(c1ccco1)N1CCN(Cc2ccccc2C(F)(F)F)CC1` reads . | . | -0.5 | -5 | . | -38 | 214

Further compounds:
Results follow in this order: HSV replic up, HSV replic up primary fold, GALR2 ag, PKD1 kinase inh, RGS16-Gao, INS promoter inh, INS promoter inh cell count
COc1ccc(CCNC(=O)CN2C(=O)NC(CCSC)C2=O)cc1 (centres undefined)
    i, 1.1, ., 0, 102, ., .
COc1cccc(-c2nc(CS(=O)CC(=O)NCCCOC(C)C)c(C)o2)c1 (centres undefined)
    i, 0.91, -3.2, -1, 101, -236, 67
Cc1ccccc1C(=O)NC=C1C(=O)OC(C)(C)OC1=O
    i, 1, ., 4, 99, ., .
CCCS(=O)(=O)N1CCCC(C(=O)NCCc2ccc(OC)c(OC)c2)C1 (centres undefined)
    i, 0.97, -1.9, -15, 108, -25, 144
O=C(NC1(C(F)(F)F)NC(=O)N(C2CCCCC2)C1=O)c1ccco1 (centres undefined)
    i, 1, ., -4, 101, ., .
CC(C)Oc1ccc(-c2nc(NCC3CCCO3)c3ccccc3n2)cc1 (centres undefined)
    i, 0.68, ., ., 103, ., .
CC(C)COC(=O)Nc1ccc(C(=O)O)cc1
    i, 0.93, 0.2, 2, 102, -3, 231
COc1ccccc1N1CCN(CCc2n[nH]c(=S)n2-c2ccccc2)CC1
    i, 1.1, -1.2, -15, 116, -22, 78
COc1ccc(C)cc1C(=O)C1CC(C(=O)O)C(C)(C)C1C (centres undefined)
    i, 1, -1.0, 8, 101, ., .
Cc1cc(-n2c(C)cc(C(=O)CN3C(=O)NC4(CCCCC4C)C3=O)c2C)no1 (centres undefined)
    i, 0.91, -0.8, -10, 103, -31, 115

Part of the list above, as labelled records:
Cc1ccccc1C(=O)NC=C1C(=O)OC(C)(C)OC1=O
  HSV replic up: i; HSV replic up primary fold: 1; GALR2 ag: .; PKD1 kinase inh: 4; RGS16-Gao: 99; INS promoter inh: .; INS promoter inh cell count: .
CCCS(=O)(=O)N1CCCC(C(=O)NCCc2ccc(OC)c(OC)c2)C1 (centres undefined)
  HSV replic up: i; HSV replic up primary fold: 0.97; GALR2 ag: -1.9; PKD1 kinase inh: -15; RGS16-Gao: 108; INS promoter inh: -25; INS promoter inh cell count: 144

The listing continues:
Results follow in this order: HSV replic up, HSV replic up primary fold, GALR2 ag, PKD1 kinase inh, RGS16-Gao, INS promoter inh, INS promoter inh cell count
COc1ccc(S(=O)(=O)N2CCC(n3cnc4cc(C(F)(F)F)ccc43)CC2)cc1
    i, 0.97, -0.2, 74*, 93, 8, 78
O=C(Nc1cccc(Cl)c1)C1CCCN(S(=O)(=O)c2cnc[nH]2)C1 (centres undefined)
    i, 0.98, -2.5, 2, 103, ., .
CCOc1ccc(NCCC(=O)c2ccc3c(c2)OCO3)cc1
    i, 0.81, -2.0, -3, 191, 29, 124
CSc1nnnn1CCn1nnnc1SC
    i, 0.94, 0.1, -4, 116, 43, 71
Nc1ccc(S(=O)(=O)NC2(C(F)(F)F)NC(=O)N(c3ccccc3Cl)C2=O)cc1 (centres undefined)
    i, 1, 0.4, -9, 107, 13, 166
O=C(c1cccc(S(=O)(=O)N2CCCC2)c1)N1CCCc2ccccc21
    i, 0.98, ., 1, 92, ., .
Cc1sc2ncnc(N/N=C/c3ccccc3O)c2c1C
    i, 0.67, -0.3, 0, 100, 58, 37
Cc1cc(C)c(S(C)(=O)=O)c(S(=O)c2ccc(Cl)cc2)n1 (centres undefined)
    i, 0.96, -2.7, -2, 107, 33, 138
COC(=O)C(C)Sc1nnc(Cc2cc(=O)[nH]c(=O)[nH]2)n1-c1ccc(Cl)cc1 (centres undefined)
    ., ., -0.1, 10, 93, ., .
O=C(O)c1ccc2c(c1)OCCCO2
    i, 1.1, ., ., 95, ., .

Additional results
SMILES	HSV replic up	HSV replic up primary fold	GALR2 ag	PKD1 kinase inh	RGS16-Gao	INS promoter inh	INS promoter inh cell count
C(#Cc1ccccc1)C[N+]1(CC#Cc2cccc3ccccc23)CCOCC1	i	0.89	.	-3	164	.	.
COc1ccccc1-c1cc(C(F)(F)F)nc(S(=O)(=O)CCCC(=O)NCc2ccc(F)cc2)n1	i	0.58	.	6	100	47	96
COC(=O)C(NS(=O)(=O)c1ccccc1Cl)c1ccccc1 (centres undefined)	i	0.99	.	-8	100	-71	77
Cc1cccc(C)c1Oc1nc(-c2ccccc2)ncc1S(=O)(=O)c1ccccc1	i	0.91	-1.5	6	104	13	98
O=C(c1ccccc1)C1CN(Cc2ccccc2)CCC1(O)c1ccccc1 (centres undefined)	i	0.84	.	-8	153	.	.
Nc1nc(SCC(=O)Nc2cccnc2Cl)n[nH]1	i	0.99	.	0	97	.	.
Cc1cc(C(F)(F)F)nn2cnnc12	i	0.92	.	-2	103	27	126
O=C(O)CN(c1ccccc1F)S(=O)(=O)c1ccccc1	i	0.81	-0.3	1	109	.	.
c1ccc2c(c1)[nH]c1c(N3CCSCC3)ncnc12	.	.	-1.2	-5	101	94*	140*
COc1ccccc1/C=N/NC(=O)CNC(=O)c1ccc(S(=O)(=O)N2CCCC2)cc1	i	0.97	.	-3	108	-56	76
CCCCCC(=O)NC(=S)Nc1ccc(N2CCCCC2)c(Cl)c1	i	0.88	-4.4	-3	102	.	.
COc1cccc(NC(=O)C2CCN(S(=O)(=O)c3ccc4c(c3)OCCO4)CC2)c1	i	1.1	-1.1	-3	102	32	91

(continued)
SMILES	HSV replic up	HSV replic up primary fold	GALR2 ag	PKD1 kinase inh	RGS16-Gao	INS promoter inh	INS promoter inh cell count
Cc1ccc(N(C(=O)c2ccc3c(c2)OCO3)C2C=CS(=O)(=O)C2)cc1 (centres undefined)	i	0.9	-0.6	-4	106	-9	126
Cc1ccc(NCC(=O)N=Nc2c(O)n(C)c3ccccc23)cc1	i	0.96	.	-8	103	.	.
Brc1ccc(-c2nnc3c4ccccc4nc(N4CCOCC4)n23)cc1	.	.	-2.4	-2	102	-27	109
COc1ccc(NC(=O)c2ccco2)cc1N	i	0.79	-1.1	-8	98	.	.
CCc1ccc(NC(=O)C/C(C)=N/NC(=O)OCc2ccc(OC)cc2)cc1	i	0.92	-0.2	2	92	-24	30
CCOC(=O)Cc1csc(NC(=O)COc2ccc(OC)cc2)n1	i	1.1	-0.6	-10	113	.	.
COc1ccc(-c2c(-c3ccc(O)cc3O)n[nH]c2C)cc1OC	i	0.86	-2.8	3	104	3	106
CCN(CC)S(=O)(=O)c1cccc(NC(=O)CCSc2ccc(Cl)cc2)c1	i	0.86	-1.0	2	48	-43	106
Cc1ccc2c(c1)N(CC(=O)c1cccc(Cl)c1)C(=O)C(C)O2 (centres undefined)	i	0.95	-2.2	-12	104	44	107
C=CCSc1nnc(CCCCCN2C(=O)c3cccc4cccc(c34)C2=O)o1	i	1	-0.7	-9	101	-16	109
CCc1nc(SCC(=O)Nc2cc(C)on2)c2c(C)c(C)sc2n1	i	0.86	-1.9	11	103	-143	42
Cc1ccccc1-n1nnnc1-c1ccccc1	i	1.1	-0.6	-9	98	-50	213

Following part.
SMILES	HSV replic up	HSV replic up primary fold	GALR2 ag	PKD1 kinase inh	RGS16-Gao	INS promoter inh	INS promoter inh cell count
CCOc1ccc(N/C=C/C(=O)c2ccc(OC)cc2)c([N+](=O)[O-])c1	i	0.64	1.1	-6	107	.	.
O=C(c1ccco1)N1CCN(Cc2nnnn2CC2CCCO2)CC1 (centres undefined)	i	0.87	.	4	105	.	.
CCCNc1[nH]c(=O)n(C)c(=O)c1N=O	i	1.1	-2.2	-9	104	.	.
Cn1c(=O)n(CC(=O)N2CCOCC2)c2ccccc21	i	1	-2.9	2	.	14	85
CCC1(C)Cc2ccccc2-c2nc(NCCO)[nH]c(=O)c21 (centres undefined)	i	0.94	-2.1	0	102	18	64
Cc1ccc(Nc2cc(C)nc(N3CCOCC3)n2)c(C)c1	i	0.98	0.3	-12	64	-18	52

Taken from above.
CCC1(C)Cc2ccccc2-c2nc(NCCO)[nH]c(=O)c21 (centres undefined) in HSV replic up primary fold → 0.94
Cn1c(=O)n(CC(=O)N2CCOCC2)c2ccccc21 in GALR2 ag → -2.9
CCCNc1[nH]c(=O)n(C)c(=O)c1N=O in PKD1 kinase inh → -9
CCOc1ccc(N/C=C/C(=O)c2ccc(OC)cc2)c([N+](=O)[O-])c1 in RGS16-Gao → 107
